# KSHV LANA nucl: inhibitors of KSHV LANA binding to nucleosomes. FITC-LANA1-23 / chicken nucleosome fluorescence polarization; active compounds read low. z-score (concentration not given with the values). 51,000 compounds, 0.3% hits. AID 720717;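 active = both repeat wells score below -2 in polarization z-score versus plate sample wells, excluding overly bright wells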;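 also: 100 nL library stock added to about 30 µL; numbers are from one replicate; some results filed as inactive read as strong as hits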
#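 Assay system: purified chicken nucleosomes with FITC-labelled LANA N-terminal peptide (1-23) / Probe or stimulus: 50 nM FITC-LANA1-23 probe / Compound dosing: pin-transferred compound, 100 nL / Times: compound with peptide–nucleosome mix 10–45 min at room temperature / Technique: fluorescence polarization, 480 nm excitation, 535 nm parallel and perpendicular emission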
# BasE inh: BasE siderophore biosynthesis inhibition; purified BasE, fluorescence polarization binding displacement; inhibition, % (no concentration beside the values); 84,000 compounds, 0.1% hits; AID 485350;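 active = both replicates above 25% with normal brightness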;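 also: 0% = negative plate control signal and 100% = positive plate control signal; stock transfer was 100 nL into about 30 µL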
# * hit, by the source's call; x = no result given; & = joins results of further samples.
cpd	SMILES	KSHV LANA nucl	BasE inh
1	C1=C(c2ccccc2)CCN(Cc2nnc(-c3ccco3)o2)C1	x	-2.1
2	c1cncc(C2CCCN2)c1 (stereo not drawn)	0.024	x
3	CC12CCC3C(CCC4CC(=O)CC43C)C1CCC2O (stereo not drawn)	-0.71	0.9
4	Cc1ccc(S(=O)(=O)Nc2c(C(=O)NCc3ccco3)c3nc4ccccc4nc3n2Cc2ccco2)cc1	x	6.3
5	CCCC[N+]1(C)[C@@H]2CC(OC(=O)[C@H](CO)c3ccccc3)C[C@H]1[C@@H]1O[C@@H]12 (stereo partly drawn)	-0.29	x
6	N#CC1=C2SCC(O)(c3ccco3)N2C(=O)CC1c1ccccc1F (stereo not drawn)	0.012	-2.1
7	Cc1ccc(C(=O)NC2CN3CCC2CC3)cc1NC(=O)c1ccco1 (stereo not drawn)	x	2.2
8	CCOc1ccc2nc(N=Nc3c(O)[nH]c(=O)[nH]c3=O)sc2c1	x	0.2
9	CCCC[C@@H](C)[C@@H](OC(=O)C[C@@H](CC(=O)O)C(=O)O)[C@H](C[C@@H](C)C[C@H](O)CCCC[C@@H](O)C[C@H](O)[C@H](C)N)OC(=O)C[C@H](CC(=O)O)C(=O)O	-1	0.6
10	CCOc1ccccc1CN1CCN(C)CC1	-0.34	1.0
11	Cc1cc(C(=O)CN2CCCC2)c(C)n1-c1ccc(F)cc1	x	1.2
12	Cc1nc2c(o1)NC(N)=C(C#N)C21CCN(C)CC1	-0.61	6.9
13	Fc1ccccc1CCNCc1ccco1	-0.55	-4.8
14	Cc1n[nH]c(C)c1CCN	0.54	-0.2
15	C=C(C)Cc1c(COC)nc(-c2ccc(C)c(Cl)c2)nc1OC(=O)N(C)C	-0.12	4.4
16	CN(C)C(=O)Oc1ccc(-c2ccccc2)cc1	0.93	-2.5
17	COc1cc(CN2CCN(C(=O)Cc3ccccc3)CC2)cc(OC)c1OC	0.037	2.1
18	CN1C(=O)COc2c(C(=O)NC3CN4CCC3CC4)cc(Cl)cc21 (stereo not drawn)	-0.83	x
19	CC(C)(C)c1ccc(/C=C2\C(=O)C3CCN2CC3)cc1	1.6	-0.8
20	CN=C1N=P(NC)(NC)N=C(c2ccccc2)N1	x	0.8
21	O=P(CN1CCN(c2ccccc2)CC1)(N1CCCCC1)N1CCCCC1	x	4.5
22	CC1(C)COP(=S)(C(Nc2ccc(Cl)cc2)c2ccc(O)cc2)OC1 (stereo not drawn)	x	-0.5
23	Nc1ccc(CCN2CCCCCC2)cc1	-0.6	-2.1
24	COc1ccc(CCNCc2cccnc2)cc1	0.85	0.9
25	CCN1C[C@]2(C)CC[C@H](O)C34C5C[C@H]6C(O)C5[C@](O)(C[C@@H]6OC)C(CC32)[C@@H]14 (stereo partly drawn)	-0.36	-1.7
26	Cn1c(O)c(C=NCCN2CCN(C(=O)c3ccccc3)CC2)c(=O)n(C)c1=O	-0.53	0.0
27	CCCCNC(=S)N1CCn2cccc2C1c1cccnc1 (stereo not drawn)	-0.65	-0.8
28	COc1ccccc1CCNCc1ccccc1C(F)(F)F	x	0.4
29	CCCCC(C#N)(Cn1cncn1)c1ccc(Cl)cc1 (stereo not drawn)	-0.25	x
30	CCOC(=O)C(O)(c1cn(C)c2ccccc12)C(F)(F)F (stereo not drawn)	0.31	3.1
31	COc1ccc(C2=NC3(CCNCC3)NC2=S)cc1	2.4	-3.9
32	COc1cccc(CN2CCN(Cc3ccccc3)CC2)c1	-0.66	2.5
33	O=P12CN3CN(CN(C3)C1)C2	x	0.8
34	CNC(=O)O/N=C(\N)c1nn(C(=O)NC)cc1Br	0.099	-1.2
35	CN1C(=O)NC(=O)/C(=C/c2ccco2)C1=O	-0.42	1.8
36	O=P(OCC(F)(F)F)(N1CCCCC1)N1CCCCC1	-0.17	6.8
37	CC(=O)Nc1cccc(OC(=O)N(C)C)c1	0.49	-0.4
38	CC(C)(C)c1cc2c(c(C(C)(C)C)c1)Oc1cc(C#N)c(C#N)cc1O2	x	3.8
39	O=c1cccc2n1CC1CC2CN(CC(O)c2ccc3[nH]ccc3c2)C1 (stereo not drawn)	0.83	-1.1
40	C=C[C@H]1CN2CC[C@H]1C[C@@H]2[C@H](O)c1ccnc2ccccc12	0.52&-0.21	-2.2
41	CCCCn1c(C)c(C(=O)OCC)c2cc(OC)ccc21	0.26	1.5
42	Clc1cccc(Cl)c1NC1=NCCS1	x	0.6
43	CN(C)C(=O)Oc1ccnc(SCc2c(Cl)cccc2Cl)n1	-0.62	x
44	O=C(CC(=O)N1CC2CC(C1)c1cccc(=O)n1C2)c1ccccc1 (stereo not drawn)	-0.51	-0.3
45	CC(C)=CCOc1c2occc2cc2ccc(=O)oc12	-0.042	-0.4

# Three entries from above, ordered by SMILES length, ascending.
cpd	SMILES	KSHV LANA nucl	BasE inh
14	Cc1n[nH]c(C)c1CCN	0.54	-0.2
27	CCCCNC(=S)N1CCn2cccc2C1c1cccnc1 (stereo not drawn)	-0.65	-0.8
5	CCCC[N+]1(C)[C@@H]2CC(OC(=O)[C@H](CO)c3ccccc3)C[C@H]1[C@@H]1O[C@@H]12 (stereo partly drawn)	-0.29	x

# The results go on:
cpd	SMILES	KSHV LANA nucl	BasE inh
46	CCCSc1nc(O)c(CC)c(=O)n1C(C)CC (stereo not drawn)	0.23	0.8
47	CNCC(O)c1ccc(O)c(OC)c1 (stereo not drawn)	0.54	-2.1
48	CN(C)C(=S)SCC#N	x	-0.6
49	COC(=O)[C@@]1(O)CC2OC1(C)n1c3ccccc3c3c4c(c5c6ccccc6n2c5c31)C(=O)NC4 (stereo partly drawn)	x	-3.2
50	COc1ccc(Cl)cc1NC1=NCC(C)S1 (stereo not drawn)	x	0.5
51	CCC1C2CC3[C@@H]4N(C)c5ccccc5[C@]45CC(C2[C@H]5O)N3[C@@H]1O (stereo partly drawn)	-0.24	-0.1
52	O=c1c2ccccc2nc(-c2ccoc2)n1-c1ccccc1	-0.34	-0.2
53	COCc1c(C)cc(C)c(C=C(C#N)C#N)c1C	0.28	5.1
54	CC(C)OCCCNC1CCN(C)CC1	-0.14	1.8
55	CCOC(=O)c1cncn1[C@H](C)c1ccccc1	-0.51	x
56	N#CC(C#N)=Cc1cc2c(cc1Br)OCO2	x	2.5
57	O=C(CN1CCCC1)c1ccccc1Br	x	-1.3
58	O=C(c1cc2ccccc2oc1=O)N1CCC2(CC1)OCCO2	-0.81	-0.4
59	CC(C(=O)N1CCCc2ccccc21)N1CC=C(c2ccccc2)CC1 (stereo not drawn)	x	3.3
60	O=C1CCCN1C(=O)c1cc(Cl)cc(Cl)c1	0.098	-1.2
61	CCSc1ccc(CCN)s1	-1.3	-4.2
62	O=C(O)[C@@H]1C[C@@H]2CCCC[C@@H]2N1	x	-4.1
63	CCCNCCc1ccccc1	-1	0.5
64	Cc1nn(CCC#N)c2c1P(=S)(N1CCCCC1)OC(c1ccccc1)=N2 (stereo not drawn)	x	0.6
65	CCC12CN3CCN(CC(C3)/C1=N/NC(=O)c1ccncc1)C2	1	2.0
66	CCCCCC[C@H]1C(=O)O[C@H](C)C(NC(=O)c2cccc(NC=O)c2O)C(=O)O[C@@H](C)[C@@H]1OC(=O)CC(C)C (stereo partly drawn)	-0.056	-1.4
67	FC(F)=C(F)CCSC1=NCCN1	-0.12	x
68	CC(=O)N1CN2CN(C(C)=O)CC(C(=O)c3ccccc3)(C2)C1	1	-1.3
69	NC(=NCc1ccc(Cl)cc1)SCCCc1cnc[nH]1	0.016	x
70	N#CC(C#N)=Cc1c(Cl)nc2sccn12	x	1.1
71	CC(C)(N)Cc1ccccc1	-0.41	x
72	C[C@@H]1CC[C@@]2(NC1)O[C@H]1C[C@H]3C4CC=C5C[C@@H](O)CC[C@]5(C)C4CC[C@]3(C)C1[C@@H]2C (stereo partly drawn)	0.9	-2.7
73	Cc1cc(C(=O)O)c(C)n1C(C)C	0.42	4.3
74	NC(=O)CS(=O)(=O)C(c1ccccc1)c1ccccc1	-0.8	3.1
75	COc1ccc2c(C)cc(N(C)C3CCN(C)CC3)nc2c1	x	2.0
76	O=C(Cc1ccccc1)N1CCN(c2cccc(C(F)(F)F)c2)CC1	x	1.0
77	COc1ccc2[nH]cc(CCN)c2c1	0.53&-0.026	-2.3
78	CCCCn1nc(C)c(C(=O)Nc2nc3ccccc3[nH]2)c1Cl	x	1.4
79	CCN(CC)P1(=S)N(C)P(=S)(N(CC)CC)N1C (stereo not drawn)	x	3.6
80	O=C1C2CCN(CC2)C1(CO)CO	0.21	0.1
81	CCOC(=O)CN1C(=O)CC(C[C@@H](O)C2C[C@@H](C)C[C@H](C)C2=O)CC1=O (stereo partly drawn)	0.05	1.0
82	NCCN1CCN(Cc2ccccc2)CC1	x	2.8
83	C=CCOc1ccc(C=C(C#N)C#N)cc1	0.35	3.0
84	C=CC1CN2CCC1CC2[C@@H](OC(=O)c1ccc(OC)cc1)c1ccnc2ccccc12 (stereo partly drawn)	x	-1.1
85	CCn1c(O)c(C=NCCc2c[nH]c3ccccc23)c(=O)[nH]c1=O	0.29	0.6
86	COc1ccc(-n2c(O)c(C=NC3CN4CCC3CC4)c3ccccc3c2=O)cc1OC (stereo not drawn)	x	-4.2
87	c1ccc2c(c1)sc1ccccc12	0.087&-0.48	1.0
88	CC(C)[N+](C)(CCC(C(N)=O)(c1ccccc1)c1ccccc1)C(C)C	-0.15&-0.34&-0.28	-1.4&0.1
89	Cc1ccc(CN(C)C)c(OC(=O)N(C)C)c1	x	1.9
90	C=C1C2C[C@@]3(C4CC5C6(C3C[C@@H]2O)[C@@H](O)CC[C@@]5(C)CN(CC)[C@H]46)[C@@H]1O (stereo partly drawn)	-0.56	-1.5

# A draw from above in order of count of non-hydrogen atoms, smallest number first.
cpd	SMILES	KSHV LANA nucl	BasE inh
71	CC(C)(N)Cc1ccccc1	-0.41	x
63	CCCNCCc1ccccc1	-1	0.5
67	FC(F)=C(F)CCSC1=NCCN1	-0.12	x
77	COc1ccc2[nH]cc(CCN)c2c1	0.53&-0.026	-2.3
70	N#CC(C#N)=Cc1c(Cl)nc2sccn12	x	1.1
82	NCCN1CCN(Cc2ccccc2)CC1	x	2.8
89	Cc1ccc(CN(C)C)c(OC(=O)N(C)C)c1	x	1.9
79	CCN(CC)P1(=S)N(C)P(=S)(N(CC)CC)N1C (stereo not drawn)	x	3.6
69	NC(=NCc1ccc(Cl)cc1)SCCCc1cnc[nH]1	0.016	x
75	COc1ccc2c(C)cc(N(C)C3CCN(C)CC3)nc2c1	x	2.0
78	CCCCn1nc(C)c(C(=O)Nc2nc3ccccc3[nH]2)c1Cl	x	1.4
85	CCn1c(O)c(C=NCCc2c[nH]c3ccccc23)c(=O)[nH]c1=O	0.29	0.6
76	O=C(Cc1ccccc1)N1CCN(c2cccc(C(F)(F)F)c2)CC1	x	1.0
90	C=C1C2C[C@@]3(C4CC5C6(C3C[C@@H]2O)[C@@H](O)CC[C@@]5(C)CN(CC)[C@H]46)[C@@H]1O (stereo partly drawn)	-0.56	-1.5
64	Cc1nn(CCC#N)c2c1P(=S)(N1CCCCC1)OC(c1ccccc1)=N2 (stereo not drawn)	x	0.6
72	C[C@@H]1CC[C@@]2(NC1)O[C@H]1C[C@H]3C4CC=C5C[C@@H](O)CC[C@]5(C)C4CC[C@]3(C)C1[C@@H]2C (stereo partly drawn)	0.9	-2.7
84	C=CC1CN2CCC1CC2[C@@H](OC(=O)c1ccc(OC)cc1)c1ccnc2ccccc12 (stereo partly drawn)	x	-1.1
66	CCCCCC[C@H]1C(=O)O[C@H](C)C(NC(=O)c2cccc(NC=O)c2O)C(=O)O[C@@H](C)[C@@H]1OC(=O)CC(C)C (stereo partly drawn)	-0.056	-1.4

# Going on with the list.
cpd	SMILES	KSHV LANA nucl	BasE inh
91	OC1CCN(CCc2ccccc2)CC1	0.31	1.0
92	Clc1cccc(C2NCCc3[nH]cnc32)c1 (stereo not drawn)	0.13	x
93	COC(=O)c1cc(C=C(C#N)C#N)cn1C	-1	0.7
94	C[C@@H]1C(=O)OC2[C@H](O)C34[C@@H]5OC(=O)[C@@]3(O[C@@H]3OC(=O)[C@H](O)[C@@]34[C@H](C(C)(C)C)[C@H]5O)[C@]21O (stereo partly drawn)	-0.77	-4.1
95	CCOP(=S)(OCC)Oc1cc(-c2ccccc2)on1	x	0.7
96	COc1cc2c3cc1Oc1cc(ccc1O)C[C@@H]1c4c(cc(OC)c(O)c4Oc4cccc(c4)C[C@@H]3N(C)CC2)CC[N+]1(C)C	0.008	1.7
97	C=CC1CN2CCC1C(C(O)c1ccnc3ccc(OC)cc13)C2 (stereo not drawn)	0.66	-2.9
98	COC(=O)CC1=C(C(=O)OC)C2(C(=O)Nc3ccccc32)C(C(=O)OC)=C(N)O1 (stereo not drawn)	x	1.2
99	O=C1NC(=O)C(c2ccccc2)C(=O)N1	-0.6	4.6
100	CCN1C(=O)C(=Cc2cc(C)n(C3CC3)c2C)C(=O)N(CC)C1=S	-0.77	-0.7
101	C(#CCN1CCCC1)CN1CCCC1	-0.37	3.3
102	CN(C)P1(=S)C2=C(N3CCCCC3)CC(C)(C)CC2=NN1c1ccccc1 (stereo not drawn)	x	-3.0
103	O=c1cccc2n1CC1CC2CN(S(=O)(=O)c2ccccc2)C1 (stereo not drawn)	-0.38	0.1
104	CCOc1nc(NCc2ccco2)nc(N2CC3CC(C2)c2cccc(=O)n2C3)n1 (stereo not drawn)	0.16	2.9

# The list is partial; rates above refer to the full screens.
